Screens deposited in PubChem by National Center for Advancing Translational Sciences (NCATS).
VDR inhibitor: blocks the human vitamin D receptor. Potency, µM, for inactives: max response, negative = inhibition, hits mostly inhibitors. hit rate 0.93% among 400,000. VDR-SRC2-3 peptide fluorescence polarization, 2 h; active means well fitted inhibition curve with a large enough effect; inconclusive means small, poorly fitted or top-dose-only effect, or another doubt; inactive means no such curve, though single readings can be large or run the other way; further: series mostly up to about 120 µM
Target sequence (P11473 whole entry, looked up): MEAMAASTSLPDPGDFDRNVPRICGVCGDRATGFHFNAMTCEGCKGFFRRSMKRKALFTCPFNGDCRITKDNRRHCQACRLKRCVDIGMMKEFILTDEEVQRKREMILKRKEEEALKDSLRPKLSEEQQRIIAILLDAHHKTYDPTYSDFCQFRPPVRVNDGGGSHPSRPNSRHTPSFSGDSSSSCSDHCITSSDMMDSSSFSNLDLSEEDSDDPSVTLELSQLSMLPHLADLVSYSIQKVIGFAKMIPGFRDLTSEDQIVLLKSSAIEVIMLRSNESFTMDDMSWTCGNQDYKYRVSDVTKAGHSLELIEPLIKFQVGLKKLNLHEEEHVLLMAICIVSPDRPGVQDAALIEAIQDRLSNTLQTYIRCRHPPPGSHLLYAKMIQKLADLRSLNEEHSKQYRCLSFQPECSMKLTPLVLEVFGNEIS
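VDR–SRC2-3 interaction, FP format. Cmpds 23 nl via pintool, brief spin, 2 h ambient incubation.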
Starred values were filed as active, the others as inactive; u = inconclusive; & = joins results of further samples; [ ] = dose if it differs, or a comment. On the % scale 0 is the no-effect control and ±100 the full control effect; potency means the concentration at half of the fitted maximal effect. Some of the compounds tested, so the mix of outcomes need not match the whole.

SMILES | VDR inhibitor
Cc1ccc(S(=O)(=O)CC(O)COc2ccc(F)cc2Cl)cc1 (stereo unspecified) | 4%
COC(=O)CSCc1nc2ccccc2[nH]c1=O | u
NC(=O)c1c(NC(=O)c2cccnc2)sc2c1CCCCC2 | -14%
O=C(O)c1cccc(S(=O)(=O)Nc2ccc(Cc3ccncc3)cc2)c1 | -15%
CN(CC(=O)Nc1ccc(Cl)cc1)S(=O)(=O)c1ccc2c(c1)n(C)c(=O)c(=O)n2C | 9%
c1ccc(CCc2nc(-c3cccnc3)no2)cc1 | -5%
O=C(O)CSC(C(=O)Nc1ccc(Br)cc1)c1ccc(Cl)cc1 (stereo unspecified) | 3%
Cc1cccc2sc(N(CCCN(C)C)C(=O)CN3C(=O)c4ccccc4C3=O)nc12 | 3%
COCc1cc(C)nc(SCC(=O)Nc2cc(C(F)(F)F)ccc2N2CCOCC2)c1C#N | -12%
COc1ccccc1C(=O)NNC(=O)C(=O)NC1CCCCC1 | 6%
CC(NC(=O)CN(C)Cc1nc2ccccc2c(=O)[nH]1)c1ccccc1 (stereo unspecified) | 11%
COC(=O)Cc1ccc(NC(=S)N2CCCC(CO)C2)cc1 (stereo unspecified) | -5%
Fc1cccc(Cc2noc(CN3CCOCC3)n2)c1 | -7%
C=CCNc1nc(-c2ccc(Cl)cc2)cs1 | 9%
CSc1nc(C)cc(SCC(=O)N/N=C/c2ccccc2)n1 | -2%
Cc1ccc(CNC(=O)CCCCn2c(=O)[nH]c3ccsc3c2=O)cc1 | 17%
N#Cc1c(C(F)(F)F)cc(-c2cccs2)nc1N1CCCCC1 | -10%
CCOC(=O)C1CCCN(S(=O)(=O)c2cc3c(cc2C)NC(=O)CO3)C1 (stereo unspecified) | 10%
Cc1ccc(/C(N)=N/OC(=O)Oc2ccccc2)cc1 | -5%
O=C(C(Cc1ccccc1)n1cccc1)N1CCCCC1 (stereo unspecified) | -15%
CCCCOC(=O)/C(C#N)=C/c1ccc(-c2cccc(C(F)(F)F)c2)o1 | 0%
CCCCSc1nc(CCC)cc(=O)[nH]1 | 8%
CCOC(=O)C(NC(=O)CC(C)C)(Nc1sc2c(c1C(N)=O)CCCC2)C(F)(F)F (stereo unspecified) | 3%
CC1CCN(c2ccc([N+](=O)[O-])cc2C(=O)NCC2CCCO2)CC1 (stereo unspecified) | -9%
COc1cccc(C2C(C(=O)OC(C)C)=C(C)N=c3s/c(=C\c4ccc(C(=O)O)cc4)c(=O)n32)c1 (stereo unspecified) | 89µM*

(more compounds)
SMILES | VDR inhibitor
Cc1nc2ncnn2c(C)c1CCC(=O)N1CCc2ccccc21 | 2%
O=C(Cn1cc(SCc2cccc(Cl)c2)c2ccccc21)N1CCCCCC1 | 11%
N#CCCn1cc(C(=O)Nc2ccc(C(=O)O)cc2)c(-c2cc3ccccc3o2)n1 | -5%
O=C(Nc1ccccc1)c1cccc2c(Br)cccc12 | -17%
CN(C)C(=O)CCc1ccc2c3c([nH]c2c1)[C@]1(CCC2CCCC2)[C@@H](C(=O)N2CCOCC2)C[C@H](CC(=O)NCCC2=CCCCC2)C(=O)N1CC3 | -2%
Cc1cccc(-n2nc(C)c3c2NC2=C(C(=O)CCC2)C3c2ccccn2)c1 (stereo unspecified) | 4%
CCOC(=O)c1c(C)c(C(=O)NCc2ccc(OC)cc2)c(C)n1C | -14%
CCOC(=O)c1ccc(NC(=O)CC2C(=O)N(c3ccccc3)C(=O)N2Cc2ccc(C)cc2)cc1 (stereo unspecified) | -10%
COc1ccc2[nH]cc(CCNc3ccnc(-c4ccccc4C)n3)c2c1 | -28%
O=C(CCSc1nnc(-c2ccncc2)o1)Nc1ccccc1Cl | -1%
CN1C(C(=O)NCc2cccc(C(F)(F)F)c2)CC2Cn3c(nc4cc(Cl)c(Cl)cc43)C21 (stereo unspecified) | 3%
Cc1cc(S(=O)(=O)Nc2ccccc2C(=O)O)ccc1Cl | -4%
CCN(CC)CCNC(=O)c1ccccc1C(=O)c1ncc[nH]1 | 1%
Cc1ccc(C(C)C)c(OCc2ccc(C(=O)N/N=C/c3cccc(O)c3O)cc2)c1 | 1%
COc1cccc(NC(=S)NC2CC3CCCC(C2)N3C2CCCC2)c1 (stereo unspecified) | 6%
C[C@@H]1CCC(=O)N(C[C@@H](C)CSc2ccc(Br)cc2)CC1 | -10%
O=C(Cc1ccccc1)NNC(=S)Nc1ccccc1 | -4%
Cc1ccc(N2CC(NC(=O)c3ccc(S(=O)(=O)N4CCCC4)cc3)CC2=O)cc1 (stereo unspecified) | -5%
Cc1ccc(NC(=S)NNS(=O)(=O)c2ccc3ccccc3c2)cc1Cl | -24%
CCOc1ccc(NC(=O)NCCCN2CCN(c3ccc(OC)cc3)CC2)cc1 | -15%
COc1cccc(-c2nc3c(c(=O)[nH]c(=O)n3Cc3ccccc3)n2CCO)c1OC(F)F | -6%
O=C(N/N=C/C(Cl)=C/c1ccccc1)c1ccncc1 | -24%
NC(=O)C1CCN(C(c2ccccc2F)c2nnnn2Cc2ccco2)CC1 (stereo unspecified) | 2%
Cc1ccc(NS(=O)(=O)c2ccc3c(c2)oc(=O)n3C)cc1F | -9%
CC(C)(C)c1nnc(NS(C)(=O)=O)s1 | -12%

The list goes on:
SMILES | VDR inhibitor
CCC(C)N(C(=O)CSc1nc(C)c(C)c(C)c1C#N)C1CCS(=O)(=O)C1 (stereo unspecified) | -13%
O=C(CC1C(=O)NCCN1Cc1cccc(F)c1)NCCCN1CCCC1=O (stereo unspecified) | -6%
CS(=O)(=O)N(CC(=O)N1CCCCCC1)c1ccc2c(c1)OCCO2 | 14%
C/C=C/C=C/C(=O)OC(C)C(=O)Nc1cc([N+](=O)[O-])ccc1OC (stereo unspecified) | -10%
COc1cc(/C=C/c2ccc3cccc([N+](=O)[O-])c3n2)ccc1OCC(=O)O | 4%
CC(=O)OCC(=O)C1(O)CCC2C3CC(C)C4=CC(=O)C=CC4(C)C3=CCC21C (stereo unspecified) | 4%
CC1CCC(C(C)C)C(OC(=O)COC(=O)c2cc(O)ccc2N)C1 (stereo unspecified) | -25%
COc1cc(C(=O)N2c3ccccc3CCC2C)cc(OC)c1OC (stereo unspecified) | 6%
Cc1ccccc1S(=O)Cc1ccc(C(=O)NCc2ccccc2Cl)o1 (stereo unspecified) | 15%
Cc1oc(-c2cccs2)[n+]([O-])c1C | -23%
COc1ccc(C(=O)NCCC(C)C)cc1S(=O)(=O)N1CCOCC1 | 9%
O=C(Nc1cc(F)ccc1F)C1CCCN(c2ncnc3c2nc2n3CCCCC2)C1 (stereo unspecified) | 0%
O=C1COCC(=O)N1CCc1c[nH]c2ccccc12 | 6%
COC(=O)C1(CO)NC(c2ccc(C)cc2)C2C(=O)N(c3ccccc3)C(=O)C21 (stereo unspecified) | -4%
COc1ccc(/C(=N/O)C(C)(C)NO)cc1 | 1%
COc1ccc(CN(C)Cc2ccccc2)c(OC)c1OC | -25%
CCN1CCN(c2ccc(S(=O)(=O)N3CCOCC3)cc2NC(=O)c2cc(Cl)nc3ccccc23)CC1 | 8%
COC(=O)Cn1nc(-c2ccccc2)c2ccccc21 | 3%
CCOC(=O)c1sc(NC(=O)c2cc3ccccc3o2)nc1C | 1%
CCCC(C)c1nnc(NC(=O)CN2C(=O)c3ccccc3C2=O)s1 (stereo unspecified) | -16%
Nc1cccnc1Sc1cccc(Cl)c1 | u
Cc1cc2nc3n(c2cc1C)CC1CC(C(=O)NCCC(C)C)N(C)C31 (stereo unspecified) | -25%
NC(=O)[C@@H]1[C@@H]2C(=O)N(c3ccc(F)cc3)C(=O)[C@@H]2[C@H]2C=Cc3ccccc3N21 | -9%
O=C(c1cccc(Cl)c1)C1CCCN(Cc2ccc(N3CCNC3=O)cc2)C1 (stereo unspecified) | -18%
O=c1c2cn[nH]c2[nH]c(=S)n1-c1ccccc1 | 0%

Some of the entries so far, as labelled records.
CC(=O)OCC(=O)C1(O)CCC2C3CC(C)C4=CC(=O)C=CC4(C)C3=CCC21C (stereo unspecified)
  VDR inhibitor: 4%

CC1CCC(C(C)C)C(OC(=O)COC(=O)c2cc(O)ccc2N)C1 (stereo unspecified)
  VDR inhibitor: -25%

COc1cc(C(=O)N2c3ccccc3CCC2C)cc(OC)c1OC (stereo unspecified)
  VDR inhibitor: 6%

Cc1ccccc1S(=O)Cc1ccc(C(=O)NCc2ccccc2Cl)o1 (stereo unspecified)
  VDR inhibitor: 15%

(next part)
SMILES | VDR inhibitor
NCCCC[C@H]1CN=C(N)N1CCc1cccc2ccccc12 | -6%
COc1ccc(-c2nc(SC)n(C(=O)c3ccco3)n2)cc1 | 4%
Cc1ccc(S(=O)(=O)NC2=NCN(CCOC(=O)c3ccccc3)CN2)cc1 | 2%
Cc1c(Cl)cccc1NC(=O)C1C2C=CC(C2)C1C(=O)O (stereo unspecified) | -6%
CC12C=CC3(CN(Cc4ccccc4)C(=O)C3C1C(=O)NCc1ccco1)O2 (stereo unspecified) | -2%
O=C(O)COC(=O)C1C(c2ccccc2)C(C(=O)O)C1c1ccccc1 (stereo unspecified) | -2%
Cc1ccc(-n2c(SCC(N)=O)nc3c(oc4ccccc43)c2=O)cc1 | -15%&-11%
CC(=O)Nc1ccc(NS(=O)(=O)c2cc(-c3cnc(C4CC4)o3)ccc2C)cc1 | -3%
Cc1ccnc(NC(=O)CCC2CCCCC2)c1 | -4%
COc1cccc(CN2CCNC(=O)C2CC(=O)NCCCN2CCCC2=O)c1 (stereo unspecified) | 32%[activator]
CN(Cc1ccco1)C(=O)C(Cc1ccccc1)NS(=O)(=O)c1ccc2c(c1)CCC(=O)N2 (stereo unspecified) | -26%
Cc1cccc(OCc2nnc(SCC(=O)N3CCc4ccccc43)n2C)c1 | 22%
COc1cccc(Nc2nc(N)c([N+](=O)[O-])c(N3CCOCC3)n2)c1 | 8%
CC(=O)N1Cc2ccccc2C(C)CC12CCCCC2 (stereo unspecified) | -16%
Cc1c(Cl)cccc1N/C(=N/S(=O)(=O)c1cccs1)c1ccccc1 | 3%
COc1ccc(S(=O)(=O)N(C)C[C@H]2Oc3c(NC(=O)Nc4ccc(C(F)(F)F)cc4)cccc3C(=O)N([C@H](C)CO)C[C@@H]2C)cc1 | -9%
COc1ccc(-c2[nH]ncc2/C=C(/C#N)C(=O)NC2CCCCC2)cc1 | -8%
CCC(C)[C@H]1CNC(=S)N1CCc1cc(C(F)(F)F)cc(C(F)(F)F)c1 (stereo partly specified) | -5%
Cc1csc(NC(=O)CSc2nnc(-c3ccco3)n2C)n1 | 6%
CC(=O)Nc1ccc(N2C(=O)CC(N3CC(C)OC(C)C3)C2=O)cc1 (stereo unspecified) | 0%
OCC[C@@H]1C[C@H](O)[C@@H](O)[C@]2(Cc3ccccc3O2)O1 | -21%
COc1ccccc1CNCC(O)(c1ccc(F)cc1)c1ccc(F)cc1 | 0%
COC(=O)c1cccc(F)c1C(=O)c1cccc2ccccc12 | 0%
Cc1ccc(NC(=O)C2CCCN(c3nnc(-n4c(C)ccc4C)s3)C2)cc1Cl (stereo unspecified) | 13%
CCN(CC)S(=O)(=O)c1ccc2c(c1)nc(CCC(=O)OCC(=O)Nc1c(F)cccc1F)n2C | 14%

In the list so far, these have a COOH group.
SMILES | VDR inhibitor
O=C(O)c1cccc(S(=O)(=O)Nc2ccc(Cc3ccncc3)cc2)c1 | -15%
O=C(O)CSC(C(=O)Nc1ccc(Br)cc1)c1ccc(Cl)cc1 (stereo unspecified) | 3%
COc1cccc(C2C(C(=O)OC(C)C)=C(C)N=c3s/c(=C\c4ccc(C(=O)O)cc4)c(=O)n32)c1 (stereo unspecified) | 89µM*
N#CCCn1cc(C(=O)Nc2ccc(C(=O)O)cc2)c(-c2cc3ccccc3o2)n1 | -5%
Cc1cc(S(=O)(=O)Nc2ccccc2C(=O)O)ccc1Cl | -4%
COc1cc(/C=C/c2ccc3cccc([N+](=O)[O-])c3n2)ccc1OCC(=O)O | 4%
Cc1c(Cl)cccc1NC(=O)C1C2C=CC(C2)C1C(=O)O (stereo unspecified) | -6%
O=C(O)COC(=O)C1C(c2ccccc2)C(C(=O)O)C1c1ccccc1 (stereo unspecified) | -2%

Going on with the list.
SMILES | VDR inhibitor
COc1cc(CC(=O)OCC(=O)NCc2cccs2)cc(OC)c1OC | -14%
CCOC(=O)CNC(=S)N1CCn2c(nc3ccccc32)C1 | -1%
Cc1cc(NC(=O)CN(C)S(=O)(=O)c2cnc[nH]2)ccc1Br | -3%
COc1ccc2c(Sc3ccc(C)cc3)c(C(=O)NC(C)c3ccccc3)[nH]c2c1 (stereo unspecified) | 12%
CCCNC(=O)c1nc(C)n(-c2cc(Cl)cc(Cl)c2)n1 | 10%
O=C(NN=Cc1c(F)cccc1F)c1ccccc1NS(=O)(=O)c1cccs1 | -3%
Cc1noc(C)c1COC(=O)c1ccc2c(c1)OCCO2 | -2%
CCn1nc(C)c2c(-c3ccccc3)cc(=O)n(C(C)C(=O)NCCc3ccccc3)c21 (stereo unspecified) | -1%
COc1ccccc1NC(=O)C1CCN(S(=O)(=O)c2ccc3c(c2)NC(=O)C(C)S3)CC1 (stereo unspecified) | 5%
CCn1cc2nc(SCc3ccc(F)cc3)n(Cc3ccc(Cl)cc3)c(=O)c2n1 | 2%
CNc1ccc(Br)cc(C(=O)/C=C/c2ccc(Cl)cc2Cl)c1=O | u
CC(=O)c1cc(-c2ccccc2)n(CCC(=O)Nc2cc(C)cc(C)c2)c1C | 2%
COc1ccccc1NC(=O)COC(=O)c1cnccn1 | -17%
CCc1noc(-c2ccc(N3CCCCC3C)c([N+](=O)[O-])c2)n1 (stereo unspecified) | 14%
CCOC(=O)c1cnc2ccccc2c1Nc1ccc(C(=O)O)cc1 | -2%
COc1ccc2c(c1)OC(=O)CC2c1ccccc1C (stereo unspecified) | -7%
COc1ccc(/C=C/C(=O)Nc2ccccc2C(N)=O)cc1S(=O)(=O)N1CCOCC1 | -16%
